Mtb hypoxia inh – PubChem AID 1159583 | fluorescence inhibition, % (concentration not given with the values) | M. tuberculosis hypoxia-regulated fluorescent reporter, fluorescence | hit rate 0.1% among 300,000;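 active = 35 to 45% if threefold the growth effect, above 45% if 1.5-fold the growth effect; inactive = the rest, general growth blockers included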;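 also: wells of about 50 µL received 100 nL stock; 0% = vehicle wells and 100% = reference inhibitor wells; whole bacteria with a GFP reporter of the hypoxia response; strong numbers were not always called active; many hits fall short of the cut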
ugtP null kill – growth inhibition of ugtP-null S. aureus, primary screen, RN4220 ugtP deletion, OD600; 16 h; some inactives read as strong as hits; hit rate 0.54% among 330,000; growth inhibition, % (no concentration beside the values); AID 1259309, 2017;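 active = z-score under -3 and OD600 up to 0.15 on both plates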;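 also: plate controls were untreated wells for no effect and antibiotic for full effect; wells of about 80 µL received 100 nL stock; the first replicate is given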
PrP 5UTR inh – inhibition of PrP 5' UTR reporter expression; AID 488862, 2010; hit rate 0.35% among 340,000; inhibition, % (test concentration not listed); cell-based PrP 5' UTR mRNA reporter, plate reader;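 active = every replicate at 50% or more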;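 also: 0 = median of the neutral control wells; tested in H4 reporter cells; numbers are from one replicate; inactives centre near -14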
Autofluor counter – counter-screen for toxin protease inhibitors: compound fluorescence; compound autofluorescence counterscreen, microsphere flow cytometry; stronger effect = higher value; fluorescence intensity (concentration not given with the values); hit rate 3.1% among 360,000;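 active = at least 3 SD above the mean of all compounds, about 16000 in these data; inconclusive = too few beads counted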;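 also: 100 nL of 1 mM stock went into each well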
Sa RN4220 lethal – growth inhibition of S. aureus RN4220, primary screen, OD600; hit rate 0.33% among 330,000; inhibition, % (concentration not given with the values); 16 h;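 active = z-score of -3 or lower and OD600 up to 0.18 on both plates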;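 also: plate controls were untreated cells for no effect and reference antibiotic for full effect; stock transfer was 100 nL into about 80 µL; one replicate is shown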
BJeLR viability – MLPCN primary cell-based screen for lethality selective to Ras in HRASV12 cells; BJeLR (HRASV12) viability, CellTiter-Glo ATP luminescence, 48 h; reference of the scale not given here; inhibition, % (no concentration beside the values); hit rate 0.17% among 300,000; AID 1554, 2009;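 active = replicate mean above 50%; inconclusive = above 50% but judged a plate artefact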;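 also: 50 nL library stock added to about 25 µL; numbers are from one replicate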
Mtb hypoxia inh growth – further read-out of Mtb hypoxia inh, marked with its call; growth inhibition, %; measured here: M. tuberculosis growth (absorbance);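 0% = vehicle and 100% = reference antibiotic; read after six days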
An asterisk follows results filed as active; u = inconclusive; x = no result given.

SMILES	Mtb hypoxia inh	Mtb hypoxia inh growth	ugtP null kill	PrP 5UTR inh	Autofluor counter	Sa RN4220 lethal	BJeLR viability
NC(=O)CC(NC(=O)Cc1ccc(Cl)cc1)c1ccc(NCCN2CCOCC2)c([N+](=O)[O-])c1 (stereo unspecified)	1	9	0	-15	3895	3.1	8
CC(Sc1nc(-c2ccccc2)nc2c1COC(C)(C)C2)C(=O)N1CCOCC1 (stereo unspecified)	10	6	16	-11	u	6.1	-3
CCOC(=O)CSc1nc2ccccc2n2cnnc12	2	0	2	-27	8936	2.8	-13
CCOC(=O)C1C2COc3ccc(Br)cc3C2N2C(=O)CN(Cc3ccc(F)cc3)C(=O)[C@@]12C (stereo partly specified)	4	5	10	x	x	5.2	x
O=C(COc1ccccc1)N1CCN(S(=O)(=O)c2cccs2)CC1	-5	-6	2	-9	7897	2.3	5
CN(C)S(=O)(=O)c1cccc(COC(=O)CN2C(=O)NC3(CCCC3)C2=O)c1	1	-7	4	-19	5983	0.0	6
O=C(Cn1c(=O)c2cccn2c2ccccc21)NCCCN1CCCCC1	-9	-8	5	-11	5548	0.9	2
COc1ccc(CN2CCNC(=O)C2CC(=O)N(C)Cc2ccncn2)c(OC)c1 (stereo unspecified)	2	0	1	-21	4814	6.4	-3
O=C(CCC(=O)N(CC(=O)NC1CCCC1)c1ccc(F)cc1)Nc1nccs1	5	-1	1	-31	5555	2.7	-6
Cc1cc(/C=C(\C#N)C(=O)N2CCOCC2)c(C)n1C1CCCC1	11	6	2	-32	4076	3.9	-4
O=C(C1CC1c1ccccc1)N1CCOCC1 (stereo unspecified)	-4	-5	-2	1	x	-0.6	-3
O=C(C[n+]1ccc(C(=O)NCCCO)cc1)c1cccc(Br)c1	7	10	9	-7	3622	3.2	7
CC(=O)c1c(C)oc2ccc(OCc3ccccc3)cc12	6	-1	21	-24	3515	1.5	1
COc1ccccc1CNC(=O)c1ccc(NS(=O)(=O)c2c(C)noc2C)cc1	-1	-3	-1	-15	4753	-0.5	-23
CCOc1ccc(CC(=O)OCN2C(=O)c3ccccc3C2=O)cc1	19	13	4	-12	2892	6.4	13
Oc1ccc2ccccc2c1C=Nc1ccccc1	6	-1	2	x	2941	3.9	-1
CN(CC(=O)NC1CCCc2ccccc21)S(=O)(=O)c1cccs1 (stereo unspecified)	3	1	1	11	1996	1.8	-3
O=C(O)c1cc(NC(=O)c2ccc(Cl)c([N+](=O)[O-])c2)cc(C(=O)O)c1	0	-3	-5	-31	2248	3.9	-1
O=C(Nc1ccc2c(c1)OCO2)C1CCN(Cc2cnn(-c3ccccc3)c2-n2cccc2)CC1	-3	8	-2	-22	3238	-3.1	-3
CCN(Cc1ccccc1)S(=O)(=O)c1ccc(C(=O)Nc2nnc(C3CC3)o2)cc1	-3	-5	50	2	5671	60	5

Random excerpt: five compounds from above.
SMILES	Mtb hypoxia inh	Mtb hypoxia inh growth	ugtP null kill	PrP 5UTR inh	Autofluor counter	Sa RN4220 lethal	BJeLR viability
COc1ccc(CN2CCNC(=O)C2CC(=O)N(C)Cc2ccncn2)c(OC)c1 (stereo unspecified)	2	0	1	-21	4814	6.4	-3
O=C(C[n+]1ccc(C(=O)NCCCO)cc1)c1cccc(Br)c1	7	10	9	-7	3622	3.2	7
O=C(Nc1ccc2c(c1)OCO2)C1CCN(Cc2cnn(-c3ccccc3)c2-n2cccc2)CC1	-3	8	-2	-22	3238	-3.1	-3
O=C(Cn1c(=O)c2cccn2c2ccccc21)NCCCN1CCCCC1	-9	-8	5	-11	5548	0.9	2
Oc1ccc2ccccc2c1C=Nc1ccccc1	6	-1	2	x	2941	3.9	-1

Additional compounds follow:
SMILES	Mtb hypoxia inh	Mtb hypoxia inh growth	ugtP null kill	PrP 5UTR inh	Autofluor counter	Sa RN4220 lethal	BJeLR viability
O=C(CN1CCCCC1)Nc1ccc(NC(=O)c2ccccc2Cl)cc1Cl	-6	5	-8	6	2064	-0.3	-7
O=C(Cn1nc(-c2ccc(Cl)cc2)ccc1=O)NCC1CCCO1 (stereo unspecified)	7	5	9	-6	6562	7.0	-1
Cc1cccc(N(CC(=O)NC2CCCCC2)C(=O)c2ccc(C)s2)c1	17	4	5	-13	9390	3.5	-4
CN1CCN(/C=C(\C#N)S(=O)(=O)c2ccc(Cl)cc2)CC1	6	8	16	-14	4249	5.9	1
Cn1c(-c2cccc(Br)c2)n[nH]c1=O	8	0	7	-7	3352	3.9	-3
Cc1ccc(-n2c(SCC(=O)N3CCCC3)nc3c(c2=O)SCC3)cc1	3	5	4	x	x	2.7	4
Cc1ccc(CNS(=O)(=O)c2ccc3c(c2)n(C)c(=O)n3C)cc1	4	3	13	-2	3881	0.3	-5
CCSc1cnc(-c2ccccc2)n1CC	8	6	5	-24	13140	6.0	-4
CNC(=O)c1c(NC(=O)c2cccc(C)c2)sc2c1CCC2	9	17	-2	-14	3227	11	-10
Cn1cc(C(=O)NCCO)c(=O)c2ccccc21	2	-3	2	27	3657	0.2	-9
COc1ccc(OC)c(C2C(C(=O)c3ccco3)=C(O)C(=O)N2Cc2cccnc2)c1 (stereo unspecified)	-5	8	1	-15	u	3.0	-8
O=S(=O)(c1cccc(-c2cn3cccnc3n2)c1)N1CCOCC1	-4	3	1	-3	11009	1.1	x
Cc1ccc(C)c(NC(=S)N(Cc2cccc(Br)c2)CC2CCC(C(=O)O)CC2)c1 (stereo unspecified)	0	5	41	-17	4270	1.9	6
O=[N+]([O-])c1ccc(NCCCN2CCOCC2)c(Cl)c1	6	7	3	-11	22820*	2.4	6
Cc1ccc(CNC(=O)CC(C)S(=O)(=O)c2ccc3c(c2)NC(=O)CS3)o1 (stereo unspecified)	-9	-8	12	3	4867	-3.8	12
Cc1ccc2nc(-c3ccccc3)c(CC(=O)O)c(C(=O)O)c2c1	3	-2	10	-1	4941	5.3	2
Cc1cc(C(=O)NCCCN2CCCC2=O)cs1	3	1	8	-24	7652	3.8	4
CN(C(=O)COC(=O)c1ccc(C#N)cc1)c1ccccc1	9	17	-4	-5	5739	0.0	-5
C[C@H](CO)N1C[C@H](C)[C@@H](CN(C)S(C)(=O)=O)Oc2ccc(N(C)C)cc2C1=O	6	10	4	-19	3870	-5.7	x
COc1cc(C(=O)NCCCCCCNC(=O)c2cc(OC)c(OC)c(OC)c2)cc(OC)c1OC	20	4	1	-6	3610	3.4	10
Cc1ccc(S(=O)(=O)N(C(=N)N)c2nc(N(C)C)nc(N(C)C)n2)cc1	x	x	x	-4	4141	x	-2
O=C(Cc1ccccc1)N1CCCC(c2nc(-c3ccc(S(=O)(=O)N4CCCC4)cc3)no2)C1 (stereo unspecified)	3	8	0	-7	10698	4.5	12
COc1ccc(-c2[nH]ncc2CNC(C)c2cn(C)nc2C)c(F)c1 (stereo unspecified)	7	10	1	-3	2375	1.7	-2
Cc1c(Br)c(O)c(Br)c(O)c1/C=N/n1c(-c2ccccc2)n[nH]c1=S	x	x	x	-16	3000	x	7
O=C(NCc1ccc(F)cc1)c1ccc(NC(=O)C2CCCO2)cc1 (stereo unspecified)	2	-3	-5	-20	3916	8.2	2
CC(C)c1ccc(-n2c(O)c(/C=N/N3CCOCC3)c(=O)[nH]c2=S)cc1	10	3	9	-16	3449	5.3	7
CCOC(=O)CC(NC(=O)CCc1c(C)nc2nc(C)nn2c1C)c1ccc(OC(C)C)cc1 (stereo unspecified)	2	7	16	-13	2689	-1.5	-10
CC(=NNC(=O)COc1ccc(C(C)(C)C)cc1)c1ccc2c(c1)OCCO2	1	-1	-5	x	x	10	x
CC(C)CCNC(=O)C1CC(c2cccc([N+](=O)[O-])c2)=NO1 (stereo unspecified)	0	0	1	-7	3472	0.4	3
CCOC(=O)c1nn(-c2ccc(F)cc2)c2nc(Nc3ccccc3)cc(=O)n12	-5	-8	-16	-10	2094	-7.7	2
COc1ccc(C2CC(c3ccc(OC)cc3O)=NN2C(=O)c2ccccc2)cc1 (stereo unspecified)	3	2	-1	-2	3775	0.0	-7
CCOC(=O)C1=C(N)Oc2cc(O)ccc2C1c1ccccc1 (stereo unspecified)	4	-5	-16	-36	3752	2.2	0
Nc1ccc([As](=O)(O)O)cc1	4	7	-3	-4	5891	4.7	-1
Cc1ccc(NC(=O)NC(=O)COc2ccccc2C(N)=O)c(C)c1	-2	9	0	-12	3780	0.0	x
CCN(CC(=O)NC1CCS(=O)(=O)C1)c1ccc(S(C)(=O)=O)cc1[N+](=O)[O-] (stereo unspecified)	6	5	-4	-13	2269	5.3	5
O=C(CCCSc1nc2ccccc2[nH]1)N1CCN(c2ccc([N+](=O)[O-])cc2)CC1	17	8	-2	-11	3274	-11	5

Whole records as entered above. Order of screens: Mtb hypoxia inh	Mtb hypoxia inh growth	ugtP null kill	PrP 5UTR inh	Autofluor counter	Sa RN4220 lethal	BJeLR viability
COc1ccc(OC)c(C2C(C(=O)c3ccco3)=C(O)C(=O)N2Cc2cccnc2)c1 (stereo unspecified) is entered as -5	8	1	-15	u	3.0	-8
Cc1ccc(S(=O)(=O)N(C(=N)N)c2nc(N(C)C)nc(N(C)C)n2)cc1 is entered as x	x	x	-4	4141	x	-2

Compound activity (PubChem)
